From PubChem
Six1-Eya2 blk = Six1/Eya2 interaction inhibition | Q15475+O00167 | AID 651725 | 360,000 compounds, 0.56% hits | AlphaScreen GST-Six1/His-Eya2 binding, biochemical; hits give low values; control for the full effect not named in the record | activity change, % (test concentration not listed); in the data active = activity change below about -65%; inconclusive = about -30% to -65%; inactive = above about -30%; also: % is scaled to controls: 0 for no effect and ±100 for the full control effect
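AlphaScreen with GST-Six1 and His-Eya2 (5X mix: 250 nM and 500 nM), glutathione donor and nickel acceptor beads; buffer 50 mM Tris pH 8.0, 300 mM NaCl, 1 mM TCEP; 1 h at 37 C in the dark.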
TRPML1 agonist = agonists of human TRPML1 channel | 410,000 compounds, 0.12% hits | activation, % (concentration not given with the values) | TRPML1-expressing cells, Ca2+ dye fluorescence, FDSS; host cell line not named in the record; reference of the full effect not given here | Q9GZU1 | AID 624414; in the data active = activation above about 50%; inconclusive = about 30% to 50%; inactive = below about 30%; also: 0% is about no effect; the text of the record puts the active cut at 80%
Target sequence (Q9GZU1 whole entry, looked up): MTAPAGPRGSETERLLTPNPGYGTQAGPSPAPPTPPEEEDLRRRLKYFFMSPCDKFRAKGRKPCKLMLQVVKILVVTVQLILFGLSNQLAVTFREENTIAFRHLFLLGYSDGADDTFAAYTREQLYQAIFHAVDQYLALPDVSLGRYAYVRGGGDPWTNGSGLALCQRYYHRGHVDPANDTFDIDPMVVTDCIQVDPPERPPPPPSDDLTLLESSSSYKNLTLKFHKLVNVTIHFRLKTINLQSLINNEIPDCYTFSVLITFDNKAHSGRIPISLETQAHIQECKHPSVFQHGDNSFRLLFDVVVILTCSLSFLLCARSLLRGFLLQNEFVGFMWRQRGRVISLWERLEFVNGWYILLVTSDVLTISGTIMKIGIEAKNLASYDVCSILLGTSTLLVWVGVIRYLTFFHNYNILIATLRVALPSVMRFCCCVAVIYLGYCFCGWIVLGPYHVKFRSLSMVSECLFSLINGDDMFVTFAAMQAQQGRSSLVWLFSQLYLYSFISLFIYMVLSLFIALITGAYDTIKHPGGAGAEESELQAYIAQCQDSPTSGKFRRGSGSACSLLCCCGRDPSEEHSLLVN
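Calcium fluorescence on an FDSS kinetic reader gave the read-out. Tet-induced TRPML1-DL cells were plated overnight, dye-loaded (Ca8 with quencher, 45-90 min, room temperature, dark), then read 110 s after compound addition, and again 110 s after 4uM final 54-4 (EC80).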
CtBP-E1A blk = inhibitors of CtBP/E1A interaction; AlphaScreen GST-E1A/His-CtBP binding, 1536-well; hits give low values; control for the full effect not named in the record; activity change, % (no concentration beside the values); 340,000 compounds, 0.49% hits; AID 651724; in the data active means activity change below about -65%; inconclusive means about -30% to -65%; inactive means above about -30%; also: % is scaled to controls: 0 for no effect and ±100 for the full control effect
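In 5 uL wells, 23 nL compound meets equimolar GST-E1A and His-CtBP (5X stock 125 nM each) for 2 h, 37 °C. Beads (5X, 50 ug/mL) then 1 h, 37 °C, dark.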
TRPV1 potentiator = human TRPV1 potentiation; Q8NER1; TRPV1-expressing cells, Fluo-8 calcium influx, capsaicin EC20 potentiation; host cell line not named in the record; control for the full effect not named in the record; potentiation, % at 8.33 µM; 320,000 compounds, 0.02% hits; active means potentiation above 80%; inconclusive means 30% to 80%; inactive means below 30%; also: 0% is about no effect
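TRPV1-expressing cells were cultured overnight at 35.5C and loaded with Fluo-8 calcium dye for 40 to 90 min at room temperature. After a 10 s baseline, compound was added and calcium influx was read kinetically for 3 min (ex 480/em 520 nm).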
TRPML1 inh = blocks the human TRPML1 channel. TRPML1-inducible cells, Ca2+ dye fluorescence, FDSS; hits give low values; inhibition of EC80 agonist-evoked calcium signal. activity change, negative = inhibition, % (no concentration beside the values). 390,000 compounds, 0.02% hits. AID 624415; in the data active means activity change below about -50%; inconclusive means about -30% to -50%; inactive means above about -30%;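 also: stimulus is agonist 54-4 at its EC80 concentration; % is scaled to controls: 0 for no effect and ±100 for the full control effect; compound concentration not given in the record; the text of the record puts the active cut at -80%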
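Calcium fluorescence in TRPML1-DL cells induced overnight with Tet: a 110 s read after compound pin addition, then a 110 s antagonist read after challenge with 54-4 at 4 uM final (EC80).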
D2 potentiator = positive allosteric modulators of human D2 dopamine receptor. 360,000 compounds, 0.23% hits. DiscoveRx D2 beta-arrestin cells, luminescence, 90 min; 100% = 57 uM dopamine signal. AID 624464. P14416. potentiation, % (no concentration beside the values); active = potentiation of 50% or more; inconclusive = 30% to 50%; inactive = 30% or less;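 also: compound concentration not given in the record; tested on top of an EC20 dose of dopamine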
Target sequence (P14416 whole entry, looked up): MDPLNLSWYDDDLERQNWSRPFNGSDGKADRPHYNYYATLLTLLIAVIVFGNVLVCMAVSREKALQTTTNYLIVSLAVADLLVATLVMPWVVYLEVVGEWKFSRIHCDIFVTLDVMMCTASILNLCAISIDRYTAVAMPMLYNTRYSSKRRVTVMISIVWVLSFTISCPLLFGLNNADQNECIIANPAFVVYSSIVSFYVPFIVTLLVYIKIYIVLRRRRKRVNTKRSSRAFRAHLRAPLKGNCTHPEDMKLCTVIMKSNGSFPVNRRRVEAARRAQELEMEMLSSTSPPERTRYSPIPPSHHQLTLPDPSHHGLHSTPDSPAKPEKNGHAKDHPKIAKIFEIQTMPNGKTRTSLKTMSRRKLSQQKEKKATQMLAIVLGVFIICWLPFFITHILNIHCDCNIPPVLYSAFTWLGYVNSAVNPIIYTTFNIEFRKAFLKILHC
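PathHunter beta-arrestin assay in DiscoveRx D2 cells. Compounds were added with an EC20 of dopamine (50 nM final) for 90 min at 37 deg C. Luminescence was read 1 h after detection reagent, with 57 uM dopamine as the EC100 control.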
An asterisk follows results filed as active; ? = inconclusive; . = no result given.

[1] CC(=O)N/C(=C\c1ccccc1)C(=O)Nc1ccc(O)cc1
[2] O=C(NCCC1CCCCN1S(=O)(=O)c1cccs1)C(=O)Nc1ccc(F)cc1F (stereo not given)
[3] CC(=O)Nc1ccc(NC(=O)C(C)OC(=O)/C=C/c2cnc3ccccc3n2)cc1 (stereo not given)
[4] CCn1cc(CN2CCC(n3nccc3NC(=O)c3ccc4c(c3)OCO4)CC2)c(C)n1
[5] Cc1cccc(C(=O)OCCN2CCOCC2)c1
[6] CCc1cc(=O)oc2cc(O[C@@H]3O[C@H](CO)[C@@H](O)[C@H](O)[C@H]3O)c(Cl)cc12

screen / no.	1	2	3	4	5	6
TRPV1 potentiator	-9	10	11	0	-16	8
TRPML1 inh	56	-18	30	4	-9	8
CtBP-E1A blk	-12	-22	-5	5	8	9
D2 potentiator	0	-34	-11	-8	-7	2
Six1-Eya2 blk	10	8	0	3	-1	5
TRPML1 agonist	-0.5	0.1	-0.2	0.1	0.1	1.0

[7] O=C(NCC(=O)N1CCN(C/C=C/c2ccccc2)CC1)c1ccc(OC(F)F)cc1
[8] CCOCCCn1c(=S)[nH]c2cc(C(=O)NCC(OC)OC)ccc2c1=O
[9] COc1cc(/C=N/NC(=O)c2cc(-c3cccc(OC(C)C)c3)nc3ccccc23)ccc1O
[10] CSc1ccc(NC(=O)C2(C)CCN2C(=O)c2ccccc2CCc2ccccc2)cc1 (stereo not given)
[11] Cc1ccc(S(=O)(=O)NNC(=O)c2ccncc2)cc1[N+](=O)[O-]
[12] Cc1ccccc1Nc1nc(N)nc(CN2CCN(Cc3ccc4c(c3)OCO4)CC2)n1

screen / no.	7	8	9	10	11	12
TRPV1 potentiator	-6	-8	.	.	12	6
TRPML1 inh	16	11	16	.	1	-7
CtBP-E1A blk	-19	-3	0	-18	10	2
D2 potentiator	-4	-7	7	-1	15	-15
Six1-Eya2 blk	-1	-3	-5	-21	-1	-5
TRPML1 agonist	0.7	-0.5	-0.2	-0.4	-0.3	0.1

[13] Cc1ccc(NC(=O)CN2CCN(CCN=CC3=C(O)CC(c4ccc(C)cc4)CC3=O)CC2)cc1 (stereo not given)
[14] O=C(NNC(=S)Nc1cccc(C(F)(F)F)c1)c1cccc(Cl)c1
[15] C/C(=N\NC(=O)c1ccncc1)c1cccc(NC(=O)c2ccc(Cl)s2)c1
[16] Cc1ccc(C(=O)NC(=S)N2CCN(C)CC2)cc1
[17] CCN(CC)c1ccc(C=Nc2ccc(C)cc2)c(O)c1
[18] COc1ccc(C(=O)NNC(=O)C(NC(=O)c2ccccc2NC(=O)c2ccco2)C(C)C)cc1 (stereo not given)

screen / no.	13	14	15	16	17	18
TRPV1 potentiator	-4	1	-10	2	7	18
TRPML1 inh	17	-14	-2	-18	17	0
CtBP-E1A blk	-8	-18	-1	4	2	6
D2 potentiator	-2	-13	-12	-14	-12	-4
Six1-Eya2 blk	-17	-19	-2	11	2	14
TRPML1 agonist	-0.4	-1.0	-0.8	0.4	2.7	-0.3

[19] CCC1(c2ccccc2)NC(=O)N(CC(=O)NCCN2C(=O)S/C(=C\c3cccnc3)C2=O)C1=O (stereo not given)
[20] CCn1nnnc1SCC(=O)c1cc(Cl)ccc1OC
[21] Nc1cc(Cl)nc(N/N=C/c2c(O)ccc3ccccc23)n1
[22] Cc1ccc(/C=C(/C#N)C(=O)NC(C)c2ccccc2)o1 (stereo not given)
[23] CCOC(=O)c1cnc(-n2nc(C)cc2C)nc1N(C)C
[24] CCC(C)[C@H](NS(=O)(=O)c1ccc(C)cc1)C(=O)N1CCC(C(=O)N2CCC(C(=O)OC)CC2)CC1 (stereo not given in full)

screen / no.	19	20	21	22	23	24
TRPV1 potentiator	-16	-7	-7	0	18	-9
TRPML1 inh	15	-4	-3	17	-4	.
CtBP-E1A blk	-3	.	-3	10	?	3
D2 potentiator	-2	-2	-33	-4	-5	-39
Six1-Eya2 blk	-9	-2	?	16	-20	3
TRPML1 agonist	0.5	1.3	-1.6	-0.3	0.4	.

[25] CN1CCN(C(=O)c2cnn3c(C(F)(F)F)cc(-c4ccc5c(c4)OCO5)nc23)CC1
[26] C/C(=N/Nc1nc(-c2ccccc2)c(CC(=O)O)s1)c1ccccc1
[27] CCCCC1=CC2=C(c3ccco3)C(=O)C(C)(OC(=O)c3ccc(OC)cc3)C(=O)C2=CN1CCCN(CC)CC (stereo not given)
[28] COc1ccc(C(=O)N[C@H](C(=O)NCCCSc2ccccc2)C(C)C)cc1
[29] Cc1nc2ccccc2cc1C(=O)NCc1ccc(F)cc1
[30] Cc1ccc(C(=O)N[C@H](C(=O)OCC(=O)NC2CCS(=O)(=O)C2)C(C)C)cc1 (stereo not given in full)

screen / no.	25	26	27	28	29	30
TRPV1 potentiator	27	25	-10	.	-18	3
TRPML1 inh	-3	16	4	8	-12	-3
CtBP-E1A blk	4	4	-5	-6	3	14
D2 potentiator	-1	-15	-3	-8	1	-6
Six1-Eya2 blk	3	-5	-9	-1	0	11
TRPML1 agonist	-0.4	-0.5	-0.7	0.7	1.3	0.2

A different layout for part of the listing above:
The line under a structure holds: TRPV1 potentiator, TRPML1 inh, CtBP-E1A blk, D2 potentiator, Six1-Eya2 blk, TRPML1 agonist
15: C/C(=N\NC(=O)c1ccncc1)c1cccc(NC(=O)c2ccc(Cl)s2)c1
    -10, -2, -1, -12, -2, -0.8
16: Cc1ccc(C(=O)NC(=S)N2CCN(C)CC2)cc1
    2, -18, 4, -14, 11, 0.4
17: CCN(CC)c1ccc(C=Nc2ccc(C)cc2)c(O)c1
    7, 17, 2, -12, 2, 2.7
18: COc1ccc(C(=O)NNC(=O)C(NC(=O)c2ccccc2NC(=O)c2ccco2)C(C)C)cc1 (stereo not given)
    18, 0, 6, -4, 14, -0.3
19: CCC1(c2ccccc2)NC(=O)N(CC(=O)NCCN2C(=O)S/C(=C\c3cccnc3)C2=O)C1=O (stereo not given)
    -16, 15, -3, -2, -9, 0.5
20: CCn1nnnc1SCC(=O)c1cc(Cl)ccc1OC
    -7, -4, ., -2, -2, 1.3
21: Nc1cc(Cl)nc(N/N=C/c2c(O)ccc3ccccc23)n1
    -7, -3, -3, -33, ?, -1.6
22: Cc1ccc(/C=C(/C#N)C(=O)NC(C)c2ccccc2)o1 (stereo not given)
    0, 17, 10, -4, 16, -0.3
23: CCOC(=O)c1cnc(-n2nc(C)cc2C)nc1N(C)C
    18, -4, ?, -5, -20, 0.4
24: CCC(C)[C@H](NS(=O)(=O)c1ccc(C)cc1)C(=O)N1CCC(C(=O)N2CCC(C(=O)OC)CC2)CC1 (stereo not given in full)
    -9, ., 3, -39, 3, .
25: CN1CCN(C(=O)c2cnn3c(C(F)(F)F)cc(-c4ccc5c(c4)OCO5)nc23)CC1
    27, -3, 4, -1, 3, -0.4
26: C/C(=N/Nc1nc(-c2ccccc2)c(CC(=O)O)s1)c1ccccc1
    25, 16, 4, -15, -5, -0.5
27: CCCCC1=CC2=C(c3ccco3)C(=O)C(C)(OC(=O)c3ccc(OC)cc3)C(=O)C2=CN1CCCN(CC)CC (stereo not given)
    -10, 4, -5, -3, -9, -0.7

The list continues:
[31] O=C(CCCCC(=O)Nc1ccc(F)cc1)Nc1ccc(F)cc1
[32] CC(=O)Nc1ccc(S(=O)(=O)NC(CC(=O)O)c2ccc(C)cc2)cc1 (stereo not given)
[33] Cc1nn(C)c(C)c1S(=O)(=O)N1CCCC(C(=O)NC2CCCCC2)C1 (stereo not given)
[34] Cc1nc2ccccc2n1-c1nc(-c2ccco2)cc(C(F)(F)F)n1
[35] CSc1ncccc1C(=O)OCC(=O)c1[nH]c(C)c(C(C)=O)c1C
[36] COc1ccc(/C(O)=C2/C(=O)C(=O)N(c3ccccn3)C2c2cccc(Cl)c2)cc1 (stereo not given)

screen / no.	31	32	33	34	35	36
TRPV1 potentiator	1	-4	-2	1	-3	8
TRPML1 inh	-18	15	10	-7	31	.
CtBP-E1A blk	14	.	6	6	-8	-11
D2 potentiator	-3	-13	-10	0	3	-13
Six1-Eya2 blk	2	9	4	10	-6	-11
TRPML1 agonist	-0.1	-0.3	0.5	-0.2	0.3	.

[37] NC1=NC(=O)C(Cc2ccc(F)cc2)S1 (stereo not given)
[38] NC(=O)c1ccc(CSc2nc3ccccc3s2)cc1
[39] CCOc1cccc2sc(NN)nc12
[40] CCCNC(=O)c1csc2c1CCCCC2
[41] CCN(CC)C(=N)/C(C#N)=N/Nc1ccccc1
[42] O=C(COC(=O)C1CCN(S(=O)(=O)c2cccs2)CC1)Nc1ccc(F)c(F)c1F

screen / no.	37	38	39	40	41	42
TRPV1 potentiator	-5	8	18	-12	-11	-9
TRPML1 inh	4	7	2	-10	-2	16
CtBP-E1A blk	16	-15	-20	7	-1	8
D2 potentiator	1	-9	-6	-7	-7	12
Six1-Eya2 blk	0	-7	-19	5	-4	5
TRPML1 agonist	-0.5	3.5	-0.6	2.0	-0.4	-0.2

[43] CCOC(=O)c1ccccc1OCc1cc(/C=N/NC(=O)c2ccncc2)ccc1OC
[44] O=C(NC1CCOC1)c1cc(COc2cccc(C(F)(F)F)c2)on1 (stereo not given)
[45] Cc1cc(C)c(C)c(S(=O)(=O)Nc2ccccc2C(=O)NCCCn2ccnc2)c1C
[46] COc1cccc(NC(=O)CN(C)C(=O)c2cc3c(s2)CCCCC3)c1
[47] COc1cccc(C(=O)Nc2cccc3cccnc23)c1OC
[48] CCOC(=O)C1=CN(Cc2cccc(F)c2)S(=O)(=O)N(C)C1c1ccc(C(F)(F)F)cc1 (stereo not given)

screen / no.	43	44	45	46	47	48
TRPV1 potentiator	-16	-32	1	1	5	.
TRPML1 inh	-7	9	44	13	.	19
CtBP-E1A blk	5	-13	-15	.	.	10
D2 potentiator	13	-3	0	-16	6	-2
Six1-Eya2 blk	-5	0	-2	-9	1	10
TRPML1 agonist	0.0	-0.7	-0.8	-0.5	.	-0.8

[49] Cc1ncsc1CCC(=O)N1CCCC(C(=O)c2ccc3c(c2)OCO3)C1 (stereo not given)
[50] O=C(COc1ccccc1)Nn1cnc2ccccc21
[51] COc1ccc(S(=O)(=O)N(C)C[C@H]2Oc3ccc(NS(=O)(=O)c4cn(C)cn4)cc3C(=O)N([C@H](C)CO)C[C@@H]2C)cc1
[52] Cc1cc(C)c(SSc2nnnn2-c2ccccc2)c(C)c1
[53] Cc1nc2cc(-c3ccc(Cl)cc3)nn2c(C)c1CCC(=O)NCc1ccco1
[54] CCC(C)Oc1nc(C)cc(C)c1S(=O)(=O)c1ccccc1C (stereo not given)
[55] CCCc1n[nH]c(=O)c2c1nnn2Cc1ccccc1
[56] COc1ccc(S(=O)(=O)N2CCCN(CC(=O)Nc3ccc4c(c3)OCO4)CC2)cc1
[57] CN(CC(=O)Nc1cccc(F)c1)C(=O)CCNC(=O)c1ccc(Br)cc1

screen / no.	49	50	51	52	53	54	55	56	57
TRPV1 potentiator	7	-3	.	.	3	19	-1	.	10
TRPML1 inh	47	9	-10	2	-16	13	4	-2	9
CtBP-E1A blk	4	-6	-3	-4	-23	9	3	-9	6
D2 potentiator	-9	-2	-3	-17	-28	-9	-6	-16	-7
Six1-Eya2 blk	6	-1	1	4	8	8	3	-10	2
TRPML1 agonist	-0.5	0.1	-0.2	-0.2	-0.6	6.6	-0.8	0.2	-0.4
